NPYLR7 agonist: agonists of mosquito NPYLR7 receptor, primary screen, cell-based, Aedes aegypti, calcium fluorescence, mosquito biting behavior. HEK293T NPYLR7/Galpha15, GCaMP6s calcium fluorescence. 0.15% of 270,000 active. activation, % at 10 µM. Aedes aegypti neuropeptide Y-like receptor 7 (NPYLR7); in the data active means activation above about 40%;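 further: 0% = vehicle and 100% = reference agonist at the receptor; some compounds past the cut are filed as inactive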
NPYLR7 agonist max-min: recorded beside NPYLR7 agonist, whose call it bears; activation, %; measured here: Max-Min RFU normalised activation; some inactives read as strong as hits;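 span of the calcium signal over five minutes; 0% = vehicle and 100% = native peptide agonist; compound fluorescence can raise it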
* = called active by the depositor. An excerpt; rates above refer to the full screens.

`COc1cccc(-c2nnc(SCc3ccc(C(=O)O)cc3)n2-c2cccc(C)c2)c1` gave NPYLR7 agonist 12 and NPYLR7 agonist max-min 8.
COc1cccc(F)c1-c1ccc2cc[nH]c(=O)c2c1 was read as NPYLR7 agonist 6 and NPYLR7 agonist max-min 3.
Screening CCCN(Cc1cc(NC(=O)Nc2ccc(C(F)(F)F)cc2)ccc1N(C)C)C(=O)C(C)(C)C returned NPYLR7 agonist 4 and NPYLR7 agonist max-min 6.
`CCOC(=O)C1(CCOc2ccccc2)CCN(C(=O)C(=O)c2ccccc2)CC1` gave NPYLR7 agonist 7 and NPYLR7 agonist max-min 8.
`CCCN(Cc1nnc(-c2ccco2)o1)C(=O)Cn1cnc2c1c(=O)n(C)c(=O)n2C` gave NPYLR7 agonist 3 and NPYLR7 agonist max-min -2.
For Oc1oc(-c2ccc(Br)cc2)nc1C=Nc1nccs1 the results were NPYLR7 agonist -10 and NPYLR7 agonist max-min -14.
`O=C(CC(c1ccccc1)c1ccccc1)NCCn1nc(-c2cccs2)ccc1=O` gave NPYLR7 agonist -2 and NPYLR7 agonist max-min -4.
CC(CS(=O)(=O)c1ccc(F)cc1)C(=O)NCc1ccn[nH]1 (stereo not drawn) was read as NPYLR7 agonist 2 and NPYLR7 agonist max-min -1.
Cc1noc(C)c1CCCNC(=O)c1ccc(N2CCN3CCCC3C2)nc1 (stereo not drawn) was read as NPYLR7 agonist -2 and NPYLR7 agonist max-min -2.
Screening O=C1c2ccccc2-c2cc(=O)[nH]c3cccc1c23 returned NPYLR7 agonist -3 and NPYLR7 agonist max-min -9.
CCSc1nnc2ccc(-c3cccnc3)nn12 was read as NPYLR7 agonist -13 and NPYLR7 agonist max-min -11.
For CC(C)c1cc(C(=O)N2CCOC(Cc3ccccc3Cl)C2)on1 (stereo not drawn) the results were NPYLR7 agonist 4 and NPYLR7 agonist max-min 2.
For CC(NC(=O)CC1C=CS(=O)(=O)C1)C12CC3CC(CC(C3)C1)C2 (stereo not drawn) the results were NPYLR7 agonist 7 and NPYLR7 agonist max-min 6.
For Cc1nn(C)c(Cl)c1CNCCN1CCN(c2ncccn2)CC1 the results were NPYLR7 agonist 5 and NPYLR7 agonist max-min 2.
`Cc1ccc(-c2ccc(CCC(=O)NCCOc3ccccc3)n2-c2ccc(CC#N)cc2)c(C)c1` gave NPYLR7 agonist 0 and NPYLR7 agonist max-min 6.
CCOC(=O)c1nc2cc(C)c(C)cc2nc1N1CCN(C(=O)c2cccc(C#N)c2)CC1 was read as NPYLR7 agonist 3 and NPYLR7 agonist max-min 0.
`O=C(c1ccccn1)C1CCCN(S(=O)(=O)NCc2ccccc2)C1` (stereo not drawn) gave NPYLR7 agonist -3 and NPYLR7 agonist max-min -6.
`CCCNC(=O)C1(C)CCCN(Cc2cc(-c3ccccc3)nn2C)C1` (stereo not drawn) gave NPYLR7 agonist -2 and NPYLR7 agonist max-min 0.
COc1ccc2oc(=O)c(-c3csc(NC(C)=O)n3)cc2c1 was read as NPYLR7 agonist -4 and NPYLR7 agonist max-min -7.
Screening COc1ccc(C(=O)CSc2ccc3nnc(CCNS(=O)(=O)c4ccc(C)cc4)n3n2)cc1 returned NPYLR7 agonist -17 and NPYLR7 agonist max-min -21.
CC(C)NC(=O)[C@@H]1C[C@@H](N)CN1C(=O)c1ccc(C#CC(C)(C)O)cc1 was read as NPYLR7 agonist 18 and NPYLR7 agonist max-min 9.
C=CCN=c1scc(-c2cc(OC)ccc2OC)n1N=C1CCCC1 was read as NPYLR7 agonist -15 and NPYLR7 agonist max-min -19.
For O=C(Nc1cnn(-c2ccc(C(=O)N3CCN(c4ccccc4Cl)CC3)cc2)c1)C1CCOCC1 the results were NPYLR7 agonist 14 and NPYLR7 agonist max-min 4.
CSc1ccccc1OCc1cc(C(=O)N2CCN(c3nc(C)cnc3C)CC2)no1 was read as NPYLR7 agonist 3 and NPYLR7 agonist max-min -1.
Screening O=C(CCCc1cccs1)N1CCN(S(=O)(=O)C=Cc2ccccc2)CC1 returned NPYLR7 agonist 19 and NPYLR7 agonist max-min 7.
Screening COc1ccc(NC(=O)N(Cc2cccc(OS(=O)(=O)c3cccc(C(F)(F)F)c3)c2)C(C)C)cc1 returned NPYLR7 agonist 27 and NPYLR7 agonist max-min 23.
Screening O=c1ccnc(/C=C/c2ccc(F)c(Br)c2)[nH]1 returned NPYLR7 agonist -4 and NPYLR7 agonist max-min -6.
For O=C1CCN(CC(O)CC(F)(F)F)c2ccccc2CN1Cc1ccco1 (stereo not drawn) the results were NPYLR7 agonist 0 and NPYLR7 agonist max-min 10.
COc1ccc(CCn2c(-c3ccccc3I)nc3cc(Cl)ccc3c2=O)cc1 was read as NPYLR7 agonist 0 and NPYLR7 agonist max-min -3.
Screening CN(c1onc(-c2ccccc2)c1CNCC1CCCO1)C1CCCCC1 (stereo not drawn) returned NPYLR7 agonist 5 and NPYLR7 agonist max-min 0.

Taken from the entries so far for reference:
CCOC(=O)c1nc2cc(C)c(C)cc2nc1N1CCN(C(=O)c2cccc(C#N)c2)CC1 was read as NPYLR7 agonist 3 and NPYLR7 agonist max-min 0.
`O=C(c1ccccn1)C1CCCN(S(=O)(=O)NCc2ccccc2)C1` (stereo not drawn) gave NPYLR7 agonist -3 and NPYLR7 agonist max-min -6.
`CCCNC(=O)C1(C)CCCN(Cc2cc(-c3ccccc3)nn2C)C1` (stereo not drawn) gave NPYLR7 agonist -2 and NPYLR7 agonist max-min 0.
COc1ccc2oc(=O)c(-c3csc(NC(C)=O)n3)cc2c1 was read as NPYLR7 agonist -4 and NPYLR7 agonist max-min -7.
Screening COc1ccc(C(=O)CSc2ccc3nnc(CCNS(=O)(=O)c4ccc(C)cc4)n3n2)cc1 returned NPYLR7 agonist -17 and NPYLR7 agonist max-min -21.
CC(C)NC(=O)[C@@H]1C[C@@H](N)CN1C(=O)c1ccc(C#CC(C)(C)O)cc1 was read as NPYLR7 agonist 18 and NPYLR7 agonist max-min 9.
C=CCN=c1scc(-c2cc(OC)ccc2OC)n1N=C1CCCC1 was read as NPYLR7 agonist -15 and NPYLR7 agonist max-min -19.
For O=C(Nc1cnn(-c2ccc(C(=O)N3CCN(c4ccccc4Cl)CC3)cc2)c1)C1CCOCC1 the results were NPYLR7 agonist 14 and NPYLR7 agonist max-min 4.
CSc1ccccc1OCc1cc(C(=O)N2CCN(c3nc(C)cnc3C)CC2)no1 was read as NPYLR7 agonist 3 and NPYLR7 agonist max-min -1.
Screening O=C(CCCc1cccs1)N1CCN(S(=O)(=O)C=Cc2ccccc2)CC1 returned NPYLR7 agonist 19 and NPYLR7 agonist max-min 7.
Screening COc1ccc(NC(=O)N(Cc2cccc(OS(=O)(=O)c3cccc(C(F)(F)F)c3)c2)C(C)C)cc1 returned NPYLR7 agonist 27 and NPYLR7 agonist max-min 23.

Next compounds
For CCOC(=O)NCCC(=O)NS(=O)(=O)c1cccc2cc(C)cnc12 the results were NPYLR7 agonist 0 and NPYLR7 agonist max-min 1.
Screening Cc1ncsc1CCN(C)C(=O)C(C)(C)NC(=O)c1cccs1 returned NPYLR7 agonist -3 and NPYLR7 agonist max-min -4.
O=C(CN1CCc2ccccc21)Nc1ccnn1C1CCCC1 was read as NPYLR7 agonist 10 and NPYLR7 agonist max-min 11.
Screening CN1CCCCC1C(=O)N1CCC(c2n[nH]c(=O)n2-c2ccccc2)CC1 (stereo not drawn) returned NPYLR7 agonist -1 and NPYLR7 agonist max-min -1.
CCOC(=O)c1cc(-c2ccc(N3CCN(C(=O)c4c(F)cc(OC)cc4F)CC3)cc2)n(-c2ccc(F)cc2)n1 was read as NPYLR7 agonist 27 and NPYLR7 agonist max-min 11.
`CC1(C)CC(=O)C(C=NCCC(=O)O)=C(O)C1` gave NPYLR7 agonist 5 and NPYLR7 agonist max-min 3.
Screening C=CCn1c(SCCC)nc2c([nH]c3ccccc32)c1=O returned NPYLR7 agonist 1 and NPYLR7 agonist max-min 0.
For O=C1OC2CC3CC(C2)CC1C3 the results were NPYLR7 agonist -15 and NPYLR7 agonist max-min -25.
For CC(=O)OCC(=O)[C@@]1(O)CCC2C3CC[C@@H]4C[C@H](O)CC[C@]4(C)C3C(=O)C[C@@]21C (stereo partly drawn) the results were NPYLR7 agonist -5 and NPYLR7 agonist max-min -9.
`COc1cccc(C(C)(O)c2nc(-c3csc4ccccc34)cs2)c1` (stereo not drawn) gave NPYLR7 agonist 9 and NPYLR7 agonist max-min 7.
For CC(C)Oc1ccc(Nc2nccc3[nH]c(-c4ccc(C(=O)N(C)C)cc4)cc23)cc1 the results were NPYLR7 agonist 1 and NPYLR7 agonist max-min -8.
Screening COc1ccccc1-c1cnn2c(C)c(C(=O)NC(C)C)cnc12 returned NPYLR7 agonist 6 and NPYLR7 agonist max-min -7.
For CC(C)N1CCc2cc(-c3nccn3CCCO)ccc21 the results were NPYLR7 agonist 10 and NPYLR7 agonist max-min 7.
For CC(C)(C)OC(=O)NC1CCCN(C(=O)C2=C(Cl)CCCC2)C1 (stereo not drawn) the results were NPYLR7 agonist -2 and NPYLR7 agonist max-min 16.
`COC(C)(C)CC(C)NCCn1nc(C)c(Cl)c1C` (stereo not drawn) gave NPYLR7 agonist 8 and NPYLR7 agonist max-min 13.
Screening CCN(CC)S(=O)(=O)c1ccc(OC)c(N2CCN(C(=O)/C=C/c3ccccc3Cl)CC2)c1 returned NPYLR7 agonist 3 and NPYLR7 agonist max-min 2.
Screening CCCc1nc(CN(CC)C(=O)c2cccnc2C)no1 returned NPYLR7 agonist 0 and NPYLR7 agonist max-min -7.
For CC(N)(Cc1ccc(O)cc1)C(=O)O (stereo not drawn) the results were NPYLR7 agonist -1 and NPYLR7 agonist max-min 0.
`CCNC(=O)N(CCCOC)CC(=O)N1CCc2sccc2C1COc1ccccc1OC` (stereo not drawn) gave NPYLR7 agonist 8 and NPYLR7 agonist max-min 8.
Screening CC(C)C(=O)N1CCC1(C)C(=O)Nc1cc(Cl)ccc1F (stereo not drawn) returned NPYLR7 agonist 7 and NPYLR7 agonist max-min 4.
For Cc1nonc1C(=O)N1CCCC(CCC(=O)N2CCN(Cc3ccccc3)CC2)C1 (stereo not drawn) the results were NPYLR7 agonist 20 and NPYLR7 agonist max-min 3.
COC(=O)c1ccc(C(=O)OC)c(NC(=O)c2nn(-c3ccccc3C)c(=O)cc2OC)c1 was read as NPYLR7 agonist 1 and NPYLR7 agonist max-min -2.
Screening O=C(Nc1ccc(-c2cccc(-c3ccc4c(c3)OCCO4)n2)cc1)c1ccc(Cl)cc1 returned NPYLR7 agonist 2 and NPYLR7 agonist max-min 0.
`CN(C)CCN(CC1CCCN(Cc2ccccc2F)C1)C(=O)c1ccnn1C` (stereo not drawn) gave NPYLR7 agonist 4 and NPYLR7 agonist max-min 0.
CC(NC(=O)CN1C(=O)NC(C)(c2ccccc2)C1=O)c1ccc(F)cc1F (stereo not drawn) was read as NPYLR7 agonist 12 and NPYLR7 agonist max-min 11.
Screening O=C(NN=C1CCCCCC1)c1cc2c(s1)CCCC2 returned NPYLR7 agonist 4 and NPYLR7 agonist max-min 5.
For CCOCCOc1nc(-c2ccccc2C)n(-c2cccc(NC(=O)c3ccc(C(F)(F)F)cc3)c2)n1 the results were NPYLR7 agonist -3 and NPYLR7 agonist max-min 3.
`COc1cc(OC)c(OC)cc1C#N` gave NPYLR7 agonist 9 and NPYLR7 agonist max-min 5.
For O=C(COC(=O)C1CC1)NCCNC(=O)COC(=O)C1CC1 the results were NPYLR7 agonist -1 and NPYLR7 agonist max-min -4.
Screening CCOc1cc(C=CC(=O)c2ccccc2)cc(Br)c1OC returned NPYLR7 agonist 3 and NPYLR7 agonist max-min 0.
`C=CCN(CC(=O)N1CCc2sccc2C1c1ccccc1C)C(=O)c1ccc(CCCC)cc1` (stereo not drawn) gave NPYLR7 agonist 23 and NPYLR7 agonist max-min 26.
CC(=O)Nc1ccc(CN(C)c2c(C)nc3ccc(C(=O)N(C)CCCN(C)C)cn23)cc1 was read as NPYLR7 agonist 13 and NPYLR7 agonist max-min 3.
Nc1ncc(Cc2cc(Cl)ccc2Cl)s1 was read as NPYLR7 agonist 1 and NPYLR7 agonist max-min 10.
Screening CC(c1cc2ccccc2o1)N(C)C(=O)NC1CCSc2ccc(F)cc21 (stereo not drawn) returned NPYLR7 agonist 3 and NPYLR7 agonist max-min 2.
CC1CCCCN1CC(O)COC12CC3CC(CC(C3)C1)C2 (stereo not drawn) was read as NPYLR7 agonist 11 and NPYLR7 agonist max-min 8.
For COc1ccc(NC(=O)CN2CCSc3ccccc32)cc1OC the results were NPYLR7 agonist 8 and NPYLR7 agonist max-min 2.
Screening COCc1cnc2c(c1SCc1cccc(C(F)(F)F)c1)c(=O)n(C)c(=O)n2C returned NPYLR7 agonist 1 and NPYLR7 agonist max-min 6.
CCOC(=O)N1C2C3C4C5C3C(C5C42)N1C(=O)OCC (stereo not drawn) was read as NPYLR7 agonist -1 and NPYLR7 agonist max-min -2.
`CCc1ccc(C(=O)N2CCN(C(C(=O)N(CC)CC)C3CCCC3)CC2)cc1` (stereo not drawn) gave NPYLR7 agonist 5 and NPYLR7 agonist max-min 6.
CN(CCc1cnn(C)c1)c1nc2nonc2nc1NCc1ccccc1 was read as NPYLR7 agonist 9 and NPYLR7 agonist max-min 0.
`CN(C)c1ncc(CN2CCN(CCc3ccccc3)C(CCO)C2)s1` (stereo not drawn) gave NPYLR7 agonist 17 and NPYLR7 agonist max-min 12.
Cc1ccn(-c2ccc(N3CCN(S(=O)(=O)c4ccc(C)c(C)c4)CC3)nn2)n1 was read as NPYLR7 agonist -4 and NPYLR7 agonist max-min -8.
`COC(=O)c1c(C)[nH]c(-c2nc(-c3cnn(C)c3)sc2C)c1C` gave NPYLR7 agonist 4 and NPYLR7 agonist max-min 1.
For Cc1nn(C)c(C)c1CC(C)NC(=O)N1CCC2CCCCC21 (stereo not drawn) the results were NPYLR7 agonist 10 and NPYLR7 agonist max-min 4.
For Cc1ccc(C)c(S(=O)(=O)N2CCN(c3nccc(-c4cccc(C(F)(F)F)c4)n3)CC2)c1 the results were NPYLR7 agonist 32 and NPYLR7 agonist max-min 35.
`O=c1[nH]c(C[n+]2ccccc2)nc2ccccc12` gave NPYLR7 agonist 9 and NPYLR7 agonist max-min 8.

High-throughput results as filed in PubChem.
